# Screening results deposited in PubChem by National Center for Advancing Translational Sciences (NCATS).
# VDR inhibitor: blocks the human vitamin D receptor; Potency, µM, for the others: max response, negative = inhibition, most hits filed as inhibitors; 0.93% of 400,000 active; AID 504847; VDR-SRC2-3 peptide fluorescence polarization, 2 h; active = well fitted inhibition curve with a large enough effect; inconclusive = small, poorly fitted or top-dose-only effect, or another doubt; inactive = no such curve, though single readings can be large or run the other way; also: series mostly up to about 120 µM
# Target sequence (P11473 whole entry, looked up): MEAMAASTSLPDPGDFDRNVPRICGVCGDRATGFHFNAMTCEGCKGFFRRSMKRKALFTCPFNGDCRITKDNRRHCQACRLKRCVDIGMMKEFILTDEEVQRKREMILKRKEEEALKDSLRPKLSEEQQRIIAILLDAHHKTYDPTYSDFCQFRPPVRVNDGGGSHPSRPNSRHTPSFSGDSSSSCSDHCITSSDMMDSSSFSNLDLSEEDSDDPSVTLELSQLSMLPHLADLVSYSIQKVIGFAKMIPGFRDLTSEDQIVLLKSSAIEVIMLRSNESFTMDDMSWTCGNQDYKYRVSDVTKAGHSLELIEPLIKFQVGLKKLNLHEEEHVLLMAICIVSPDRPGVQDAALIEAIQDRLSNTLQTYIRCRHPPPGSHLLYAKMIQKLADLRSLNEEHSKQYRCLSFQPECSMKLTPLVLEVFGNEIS
#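 VDR–SRC2-3 interaction, FP format. Cmpds 23 nl via pintool, brief spin, 2 h ambient incubation.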
# * marks the source's active call; other numbers are inactive results; ? = inconclusive; & = joins results of further samples; [ ] = dose if it differs, or a comment. % is scaled to controls: 0 for no effect and ±100 for the full control effect; potency is read from the fitted curve at half-maximal effect. An excerpt (hit frequency here may not be typical).
VDR inhibitor | Structure
? | CC1CC2(CCCCC2)N2C(=O)C(=O)c3cccc1c32 (configuration not stated)
0% | C=CCn1c2ccccc2c(=O)c2cc(C#Cc3cc(OC)cc(OC)c3)ccc21
-4% | CC(Oc1ccc2c3c(c(=O)oc2c1)CCC3)C(=O)NCC1CCC(C(=O)O)CC1 (configuration not stated)
6% | CSc1nnc(NC(=O)Cc2coc3cc(C)ccc23)s1
-7% | CCC(C)n1c(SCC(=O)NC2CCCC2)nc2ccccc2c1=O (configuration not stated)
-20% | O=C(N/N=C/c1ccccn1)c1ccc(Br)o1
-5% | CCN1c2ccccc2-c2nc(SCC(=O)Nc3cccc(C)c3C)ncc2S1(=O)=O
7% | CCCCN(CC)S(=O)(=O)c1ccccc1
6% | CCc1ccc(NC(=O)C2CCCN(S(=O)(=O)c3cnc[nH]3)C2)cc1 (configuration not stated)
4% | O=C(CN1CCN(c2ccccc2)CC1)NCc1ccc(F)cc1
-5% | CC(C)(C)NC(=O)C1CCCN(S(=O)(=O)c2ccc(-n3cnnn3)cc2)C1 (configuration not stated)
-23% | Clc1cccc(CN2CCN(c3ncccn3)CC2)c1Cl
-4% | CCN(CC)S(=O)(=O)c1ccc(NC(=O)c2cccnc2Cl)c(NC(=O)c2cccnc2Cl)c1
-5% | CC1CCCC(C)N1C(=O)COC(=O)c1nn(C)c(=O)c2ccccc12 (configuration not stated)
-14% | COc1ccccc1CN1CCNC(=O)C1CC(=O)N(C)Cc1cnccn1 (configuration not stated)
17% | CN(C(=O)COC(=O)c1ccccc1NCc1ccco1)c1c(N)n(Cc2ccccc2)c(=O)[nH]c1=O
-5% | O=C(N/N=C/c1ccccc1O)c1cccc(C(F)(F)F)c1
18% | Cc1nc(NC(=O)CN(C)S(=O)(=O)c2ccc(Cl)cc2)sc1C
? | COc1ccccc1C(=O)N1CCN=C1SCc1cccnc1
-26% | O=C(Cc1csc(N2CCOCC2)n1)N/N=C/c1ccc(F)cc1
13% | CCCS(=O)(=O)N1CCCC(C(=O)NCCCN2CCN(c3ccc(F)cc3)CC2)C1 (configuration not stated)
5% | Cc1cccc(NCN2C(=O)c3ccccc3C2=O)c1
-18%&-17% | Cc1c(NC(=O)c2cc(-c3ccc(Cl)cc3)on2)c(=O)n(-c2ccccc2)n1C
-4% | CCOCN(C(=O)Cn1c(CC(C)C)nc2ccccc21)c1c(C)cccc1CC

# Of the compounds above, these contain a halogen:
VDR inhibitor | Structure
-20% | O=C(N/N=C/c1ccccn1)c1ccc(Br)o1
4% | O=C(CN1CCN(c2ccccc2)CC1)NCc1ccc(F)cc1
-23% | Clc1cccc(CN2CCN(c3ncccn3)CC2)c1Cl
-4% | CCN(CC)S(=O)(=O)c1ccc(NC(=O)c2cccnc2Cl)c(NC(=O)c2cccnc2Cl)c1
-5% | O=C(N/N=C/c1ccccc1O)c1cccc(C(F)(F)F)c1
18% | Cc1nc(NC(=O)CN(C)S(=O)(=O)c2ccc(Cl)cc2)sc1C
-26% | O=C(Cc1csc(N2CCOCC2)n1)N/N=C/c1ccc(F)cc1
13% | CCCS(=O)(=O)N1CCCC(C(=O)NCCCN2CCN(c3ccc(F)cc3)CC2)C1 (configuration not stated)
-18%&-17% | Cc1c(NC(=O)c2cc(-c3ccc(Cl)cc3)on2)c(=O)n(-c2ccccc2)n1C

# Next section.
VDR inhibitor | Structure
-7% | O=C(CN1C(=O)COc2ccccc21)NCCCN1CCCCC1
4% | CN(C)C(CNC(=O)c1ccc(NS(=O)(=O)c2ccc(F)cc2)cc1)c1ccco1 (configuration not stated)
15% | NC(N)=NCC(O)CN(c1ccccc1)c1ccccc1 (configuration not stated)
3% | C/C=C(\C)C(=O)Nc1cccc(C2=NOC3(C2)C[C@@H](C(N)=O)N(C(=O)/C(C)=C/C)C3)c1 (some centres not stated)
-3% | CCc1ccc(C(=O)N2CCC(c3nc4ccccc4s3)CC2)cc1
-11% | Cc1ccc(SCCC(=O)N2CCCC2)cc1
-11% | Cc1ccc(-n2c(C)cc(C(=O)CSc3nnc4ccccn34)c2C)cc1
-11% | O=S(=O)(c1ccc(Cl)cc1)c1nc(-c2cccs2)oc1N1CCCCC1

# 3 of the entries above in order of their number in VDR inhibitor, largest number first.
VDR inhibitor | Structure
3% | C/C=C(\C)C(=O)Nc1cccc(C2=NOC3(C2)C[C@@H](C(N)=O)N(C(=O)/C(C)=C/C)C3)c1 (some centres not stated)
-7% | O=C(CN1C(=O)COc2ccccc21)NCCCN1CCCCC1
-11% | Cc1ccc(SCCC(=O)N2CCCC2)cc1

# (continued)
VDR inhibitor | Structure
9% | CCOC(=O)C1CCN(C(=O)Cn2cc(C#N)c3ccccc32)CC1
-4% | Cc1ccc(Cl)cc1NC(=S)N(CCCN1CCN(C)CC1)Cc1ccco1
21% | N#Cc1nc(COc2ccc(Br)cc2)oc1N1CCCC1
2% | Cc1ccc(N(CC(=O)NCCc2ccccc2)S(=O)(=O)c2c(C)noc2C)cc1
-1% | CC1CC(C)CN(C(=O)COC(=O)c2nn(C)c(=O)c3ccccc23)C1 (configuration not stated)
4% | O=c1c2ccccc2nnn1CSc1nnnn1-c1ccccc1
-1% | O=C1c2ccccc2C2=Nc3ccccc3SC(c3cccc(F)c3)C12 (configuration not stated)
9% | Cc1sc2nc(SCC(=O)Nc3c(C)n(C)n(-c4ccccc4)c3=O)n(C)c(=O)c2c1C
5%&0% | C=CCN1CCc2c(cc(O)c(O)c2Cl)C(c2ccccc2)C1 (configuration not stated)
1% | O=C(O)CCC(=O)Nc1ccc(Br)cc1C(=O)c1ccccc1Cl
-6% | CSc1nc(NCC(C)C)c2c3c(sc2n1)CN(C)CC3
-1% | Cc1cccc(C)c1NC(=O)C(=O)NCC(c1ccc2c(c1)OCO2)N1CCOCC1 (configuration not stated)
2% | O=C(NC1CCCCC1)c1ccc(Cn2c(SCc3ccc(F)cc3)nc3cccnc32)cc1
-2% | COc1nc(-c2ccccc2)c2c(c1C#N)CC(C)(C)OC2
-7% | O=C(NCCS(=O)(=O)N1CCN(c2ccccc2)CC1)c1cccs1
7% | COC(=O)c1cccc(NC(=O)CC2C(=O)NCCN2C(=O)Nc2cc(C)cc(C)c2)c1 (configuration not stated)
11% | COc1ccc2sc(N(Cc3cccnc3)C(=O)C3COc4ccccc4O3)nc2c1 (configuration not stated)
? | COc1ccc(CNC(=O)C2CCN(C(=O)[C@@H]3Cc4ccccc4CN3)CC2)cc1
-2% | COc1cccc(NC(=O)COC(=O)C2CCCCC2)c1
0% | O=C(O)c1ccc(NN=Cc2cc(=O)[nH]c(=O)[nH]2)cc1
-16% | O=c1[nH]c2ccccc2c2oc(CCl)nc12
-9% | CCN1C(=O)c2ccccc2S(=O)c2ccc(C(=O)N3CCN(c4ccc(F)cc4)CC3)cc21 (configuration not stated)
-13% | O=C(c1cnc2n(c1=O)CCS2)N1CCN(c2ccccc2F)CC1
151%[activator] | Cc1noc(NS(=O)(=O)c2ccc(NC(=O)c3cccc(S(=O)(=O)N(C)c4ccccc4)c3)cc2)c1C
-3% | Cc1ccccc1N1CCN(C2CCCN(C(=O)c3ccc(Cl)s3)C2)CC1 (configuration not stated)
-4% | CCNc1nc(C)c2cc(Br)c(=O)n(CC)c2n1
-7% | CC(C(=O)Nc1ccccc1)C(=O)Nc1ccccc1
1% | COc1ccc(NC(=O)COC(=O)CNC(=O)c2cc(OC)c(OC)c(OC)c2)cc1
5% | CCOC(=O)C1CCCN(C(=O)c2cc3c(C)nc4ccccc4c3o2)C1 (configuration not stated)
-3% | CCOc1ccc(N(CC)C(=O)CCS(=O)(=O)c2cccc3nonc23)cc1
? | CCOC(=O)c1ccc(N=c2sc(C(=O)OC)cc(=O)n2Cc2ccc3c(c2)OCO3)cc1
-7% | COC(=O)c1sccc1NC(=S)N1CC(C)CC(C)C1 (configuration not stated)
6% | CNC(=O)NC(=O)COC(=O)CCCOc1ccc(OC)cc1
-12% | CN(CC(=O)Nc1ccccc1C(F)(F)F)C(=O)CCc1nc2sc3c(c2c(=O)[nH]1)CCCC3
-2% | COc1ccc(CCC(=O)Nc2cc(Cl)ccc2OC)cc1
-12% | CCC(C(=O)NC1CCCCC1)N(CC1CCCO1)C(=O)CNS(=O)(=O)c1ccc(OC)cc1 (configuration not stated)
0% | NCC1O[C@H](O[C@@H]2C(O)[C@H](O[C@H]3OC(CO)C(O)C(N)C3O)[C@@H](N)C[C@H]2N)[C@@H](N)CC1O (some centres not stated)
12% | CNC(=O)c1ccc(NC(=O)CC23CC4CC(CC(C4)C2)C3)cc1
2% | CCN(CC(=O)NCc1cccs1)S(=O)(=O)c1ccc(C(C)C)cc1
-2%&1% | COc1cc(O)c(C(CC(=O)N2CCCCC2)c2ccc3c(c2)OCO3)c(OC)c1 (configuration not stated)
1% | Nc1cc(N)nc(SCC(=O)N2CCN(S(=O)(=O)c3ccccc3)CC2)n1
1% | Cc1cc(C)cc(NC(=O)CCc2c(C)nn(-c3ccc(N4CCCCC4)nn3)c2C)c1
-1% | CCOc1ccc(Nc2cc(=O)oc3ccccc23)cc1
11% | CCCCn1c(N)c(N(CC)C(=O)c2cc3c(s2)CCCCC3)c(=O)[nH]c1=O
32%[activator] | Cc1occc1C(=O)NNC(=O)c1ccccc1[N+](=O)[O-]
-7% | CCN(CC)S(=O)(=O)c1ccc(N2CCCC2)c(C(=O)OCC(=O)/C(C#N)=C(\C)N)c1
-11% | Cn1c(N)c(C(=O)COC(=O)CNC(=O)c2ccccc2Cl)c(=O)n(C)c1=O
18% | O=C(/C=C/c1ccccc1)NCCc1nc2ccccc2[nH]1
-11% | COc1ccc(CCN2CNc3c(c(=O)n(C)c(=O)n3C)C2)cc1OC
4% | COC(=O)c1c(-c2c(Cl)cccc2Cl)noc1C(=O)NN
-12% | Cc1cc(C)c2c(-n3cccc3)nn(C)c2n1
-19% | O=C(C[n+]1cccc(Br)c1)c1cccs1
-6% | CCOC(=O)C1(CC)NC(c2ccco2)C2C(=O)N(C)C(=O)C21 (configuration not stated)
-3% | CCc1nnc(N/N=C/c2c(F)cccc2Cl)n1N
-9% | COC(=O)CC1Oc2ccc(Cl)cc2-n2cc(-c3ccccc3)nc21 (configuration not stated)
-15% | Cc1c(CN(C)C(=O)c2nn(C)cc2[N+](=O)[O-])cnn1C

# (listing goes on)
VDR inhibitor | Structure
-11% | Cc1ccnc(N2C(=O)c3ccccc3C2O)c1 (configuration not stated)
-19% | O=C1CCCN1C(=O)CSc1ccc2ccccc2n1
11% | Cc1cccc(N2CCN(c3ncnc4onc(C)c34)CC2C)c1 (configuration not stated)
-13% | COc1cccc(C(=O)NNC(=O)c2sccc2-n2cccc2)c1
2% | O=C(Cc1ccc([N+](=O)[O-])cc1)NCc1ccccc1Cl
-2% | O=C(COC(=O)c1cc(S(=O)(=O)N2CCOCC2)ccc1F)Nc1ccc2c(c1)OCO2
-9% | CN(CCCC1CCCC1)C(=O)c1cc(COc2c(F)cccc2F)on1
13% | O=C(c1ccc(C(F)(F)F)cc1)C1CCCN(C(=O)CN2CCCC2=O)C1 (configuration not stated)
-26% | O=C(CCn1nnc2ccccc21)Nc1nnc(Cc2ccccc2)s1
-21% | O=C(c1ccc[nH]1)N1O[C@@H]2C=C[C@H]1C2
-9% | Cc1cc(C)cc(OCC(=O)N(C)CC(=O)Nc2ccc(N3CCOCC3)cc2)c1
15% | CC(C)(C)C(=O)CSc1ncnc2c1cnn2Cc1ccccc1
? | Cc1ccc(N=C2C(=S)N(c3ccc(C)cc3)C(=N)N2/N=C/c2ccc(Cl)cc2)cc1
8% | CCOc1ccc(NC(=O)c2ccc(-c3nc(COc4ccccc4)c(C)o3)cc2)cc1
8% | c1ccc(-c2c(-c3ccccc3)n(Cc3ccco3)c3ncnc(NCCCn4ccnc4)c23)cc1
-1% | CC(C)(C)c1ccc(C(=O)Nc2ccc(S(=O)(=O)Nc3cnc4ccccc4n3)cc2)cc1
-14% | COCCCNC(=O)CSc1nc2ccccc2c(=O)n1CCCC(=O)NCC1CCCO1 (configuration not stated)
4% | COCCn1c(=O)c(-c2ccc(F)cc2)nc2cnc(Oc3ccccc3)nc21
-12% | COn1c(-c2ccc(Cl)cc2)nc2ccc(Cl)cc21
6% | CCOC(=O)c1ccccc1NC(=O)CN1CCCN(Cc2cccc(Cl)c2)S1(=O)=O
1% | O=C(CCCOc1ccccc1)N1CCN(S(=O)(=O)c2ccc(Cl)cc2)CC1
-6% | Cc1ccc(C)c(N2CC(=O)N(c3cc(C)ccc3C)CC2=O)c1
? | CCOc1cccc(C(=O)NC(=S)Nc2ccc(Cl)cc2C(=O)O)c1
7% | O=C(COC(=O)CN1C(=O)C2CCCCC2C1=O)NCc1ccc(Cl)cc1Cl (configuration not stated)
-4% | Cc1ccc(Sc2ccc(N3CCCC(C(=O)Nc4ccc(F)cc4F)C3)nn2)cc1 (configuration not stated)
-7% | CC(NC(=O)c1ccccc1Cl)C(=O)O (configuration not stated)
11% | Cc1ccc2onc(CC(=O)N3CCN(c4cccc(C)c4C)CC3)c2c1
8% | O=C(c1ccccc1Cl)N1CCC(c2nc3c(nnn3Cc3ccco3)c(=O)[nH]2)CC1
